# Screening data deposited in PubChem BioAssay by several laboratories.
# West Nile antiviral: inhibition of WNV-induced cytopathic effect – cell-based, CPE readout (AID 1621). West Nile virus-infected cells, CPE inhibition; higher % means a stronger effect. 290,000 compounds, 0.02% hits. one-dose CPE inhibition, % at 10 µM; IC50 in µM for titrated hits; in the data active means a potency from the dose series; inconclusive means CPE inhibition mostly from about 3.7% at the one dose, without a potency; inactive means the rest, 99 in 100 with CPE inhibition below about 2.2%; further: strong numbers were not always called active
# P. falciparum M1AAP: malaria alanyl aminopeptidase activity blockers – biochemical, fluorogenic H-Leu-NHMec substrate, 1536-well (AID 1445) | inhibition, % at 30 µM; hits with a dose series show IC50 in µM | 220,000 compounds, 0.42% hits | recombinant M1AAP, H-Leu-NHMec fluorogenic kinetic assay; higher % means a stronger effect;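 active means primary inhibition above the hit cutoff, then over 50% inhibition at one or more dose response concentrations, cut at about 23% in these data, passing the limit was not always enough; inconclusive means conflicting primary data, or primary hits not chosen for dose response; inactive means low primary inhibition, or under 50% at every dose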;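 further: plate controls were DMSO full reaction for no effect and no enzyme background for full effect; strong numbers were not always called active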
# SIAH1 antagonists: blockers of Siah-1 interaction with plectin peptide – biochemical, fluorescence polarization, rhodamine-plectin, uHTS, primary screen (AID 1817); displacement, % at 20 µM; hits with a dose series show IC50 in µM; 290,000 compounds, 0.02% hits; Siah-1 / rhodamine-plectin peptide fluorescence polarization; higher % means a stronger effect;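 active means displacement of at least 50% at 20 µM, with a fluorescence ratio check between 0.3 and a set limit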;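 further: plate controls were Siah plus tracer with DMSO for no effect and tracer alone without Siah for full effect; strong numbers were not always called active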
# PhoP inhibition: inhibitors of PhoP regulon expression, primary screen, Salmonella Typhimurium, GFP reporter (AID 1863); inhibition, % at 50 µM; hits with a dose series show IC50 in µM; 300,000 compounds, 0.16% hits; S. Typhimurium PhoP-regulated promoter GFP reporter, 4 h; higher % means a stronger effect;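 active means inhibition over 29.93%, a cutoff 3 SD above the screen mean, later confirmed by dose response; inconclusive means inhibition over 29.93% but no dose response follow-up; inactive means inhibition at most 29.93% or unconfirmed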;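 further: 0% = low Mg2+ inducing control and 100% = high Mg2+ repressing control; strong numbers were not always called active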
# Yfh1-off respiration: enhancers of respiration in Yfh1-depleted yeast, dose response, Friedreich's ataxia, plus single-dose screen (AID 1465); S. cerevisiae Yfh1-off respiration, WST-1 reduction, 72 h; higher fold induction means a stronger effect; fold induction at 50 µM; hits with a dose series show EC50 in µM; 220,000 compounds, 0.074% hits;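 active means fold induction of absorbance versus untreated yeast above a set limit, then at least 30% activation at any dose in follow-up; inconclusive means repeats straddling the limit, or above it without dose testing; inactive means fold induction below the set limit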;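 further: activators that raise dye reduction in frataxin-depleted yeast; strong numbers were not always called active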
# XIAP antagonists: XIAP antagonists, biochemical, IAP family, fluorescence polarization (AID 1018); XIAP BIR domain, fluorescence polarization peptide displacement; higher % means a stronger effect; 200,000 compounds, 0.007% hits; displacement, % at 20 µM; hits with a dose series show IC50 in µM; in the data active means displacement above about 50%; further: a part of the inactive calls stands beside numbers as strong as those of hits
# P. falciparum M17LAP: P. falciparum M17LAP inhibitors, primary screen, biochemical, fluorogenic H-Leu-NHMec substrate, 1536-well (AID 1619). recombinant M17LAP, H-Leu-NHMec fluorogenic kinetic assay; higher % means a stronger effect. inhibition, % at 30 µM; hits with a dose series show IC50 in µM. 220,000 compounds, 0.38% hits;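 active means compound inhibiting the enzyme by more than half at any dose during confirmatory dose-response retesting; inconclusive means strong single-dose inhibitors picked by rank but not retested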;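 further: plate controls were full reaction with DMSO carrier for no effect and no enzyme background for full effect; strong numbers were not always called active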
# CSM14.1 death rescue: protection against thapsigargin-triggered cell killing – 384-well, CSM14.1, ATP luminescence, primary screen (AID 1222); CSM14.1 thapsigargin-induced death rescue, ATP luminescence; higher % means a stronger effect; one-dose cellular ATP content (survival), % at 20 µM; EC50 in µM for titrated hits; 190,000 tested, under 10 active;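 active means EC50 below 50 µM in the dose-response confirmation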;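 further: death triggered by thapsigargin at about 15 µM added after 2 h compound pretreatment; cell ATP read after overnight thapsigargin exposure of roughly 18 to 22 hours; normalized against plate controls of thapsigargin alone and 5% DMSO vehicle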
# Starred values were filed as active, the others as inactive; i = inactive; u = inconclusive; x = not tested or not shown. A portion of the library; the hit share may differ from the screen's.
No.	structure	West Nile antiviral	P. falciparum M1AAP	SIAH1 antagonists	PhoP inhibition	Yfh1-off respiration	XIAP antagonists	P. falciparum M17LAP	CSM14.1 death rescue
1	CCSc1nnc(-c2sc3nnc(-c4ccccc4)c(-c4ccccc4)c3c2N)o1	-0.1%	6%	0%	-32%	i	0.2%	-4%	6.0%
2	CCOC(=O)C(C(=O)N(C)C)c1ncc(C(F)(F)F)cc1Cl (configuration not stated)	0.1%	12%	-3%	-10%	i	-3.1%	0%	3.2%
3	CCCCN1C(=O)/C(=c2\sc3nc(=O)c(-c4ccccc4)nn3c2=O)c2ccccc21	0.3%	1%	-1%	-1%	i	-1.1%	-15%	0.4%
4	Cn1nnc(NC(=O)c2ccco2)n1	0.0%	-2%	5%	28%	i	-1.4%	-2%	-1.3%
5	CCCS(=O)(=O)N1CCCC(C(=O)NCCCN(Cc2ccccc2)C(C)C)C1 (configuration not stated)	x	5%	2%	2%	x	-0.9%	18%	-2.4%
6	COc1ccc(Cc2nc(C(=O)NCc3ccccc3OC)cs2)cc1	-0.2%	8%	2%	-8%	i	-0.8%	-6%	0.1%
7	CCOC(=O)CN1C(=O)S/C(=C/c2ccc(N3CCCCC3)o2)C1=O	0.1%	u	0%	-18%	i	-22%	-11%	0.9%
8	CCC(CC)c1nnc(NC(=O)C2COc3ccccc3O2)s1 (configuration not stated)	0.1%	9%	7%	-3%	i	-13%	16%	3.4%
9	COc1ccc(NC2(c3ccc(Cl)cc3)C(=O)c3ccccc3C2=O)cc1	-0.1%	9%	-2%	0%	i	-2.8%	8%	-1.5%
10	COC(=O)COc1ccsc1C(=O)OC	-0.4%	2%	4%	2%	i	-5.6%	8%	-1.0%
11	COc1cccc(C(=O)NC2CC3CCCC(C2)N3CC(=O)Nc2ccccc2)c1 (configuration not stated)	-1.3%	3%	0%	3%	i	-2.2%	8%	2.7%
12	CC(C)CNC(=O)C(=O)N/N=C/c1cccs1	0.8%	9%	-1%	-3%	i	-1.2%	12%	-1.0%
13	CSc1nc(Cl)c(C#N)c(-c2ccc(C)cc2)n1	0.2%	6%	8%	-23%	i	-1.5%	16%	-0.8%
14	CCOc1ccc(C2=Nn3c(nnc3-c3ccccc3OC)SC2)cc1	-0.5%	6%	6%	-2%	i	-4.0%	8%	-2.3%
15	Cc1ccc(-c2nnc(SCC(C)C)n2C)cc1	-0.3%	2%	-4%	0%	i	-4.9%	-8%	-1.6%
16	Oc1ccc(/C=N/NC(=S)NCc2ccco2)cc1	0.0%	14%	-2%	2%	i	-7.3%	11%	-0.4%
17	CCOC(=O)c1c(C)n(C)c2ccc(OC)c(NC(=O)CN3CCN(C(=O)c4ccco4)CC3)c12	0.1%	-5%	-4%	-3%	i	-2.9%	10%	-0.9%
18	CCNC(=S)NNC(=O)c1cccn(Cc2ccc(Cl)cc2Cl)c1=O	-1.4%	-3%	4%	26%	i	0.5%	-1%	-1.2%
19	O=C(CC1SC(N2CCCCC2)=NC1=O)Nc1cccc(C(=O)O)c1 (configuration not stated)	1.3%	-2%	0%	10%	i	-3.7%	7%	-2.0%
20	CC(C)CC(=O)N(c1ccc(F)cc1)C1C=CS(=O)(=O)C1 (configuration not stated)	0.1%	-1%	-3%	-14%	i	-0.8%	2%	0.2%
21	Cc1ccc(C(CC(=O)c2ccco2)SCCO)cc1 (configuration not stated)	0.1%	6%	1%	7%	i	0.0%	15%	-3.2%
22	COc1ccc(C2C(C(=O)N3CCOCC3)=C(C)NC3=C2C(=O)CC(C)(C)C3)c(OC)c1 (configuration not stated)	-0.1%	20%	1%	-5%	i	-2.7%	-35%	-0.9%
23	COc1ccc(Oc2nc(SC)nc3ccsc23)cc1	-0.1%	2%	-3%	8%	i	-1.4%	-3%	0.3%
24	Cc1cccc(N(C(=O)Cc2cccs2)C(C(=O)NC2CCCC2)c2ccsc2)c1 (configuration not stated)	-0.1%	-1%	-2%	-4%	i	-4.6%	5%	5.2%
25	COc1ccc(C2=NCC(CSc3nccc(=O)[nH]3)S2)cc1 (configuration not stated)	0.0%	-4%	0%	-4%	i	-3.5%	41%	0.6%
26	Cc1ccc(-c2cc(N)n(-c3ccc(C)cc3)n2)cc1	-0.5%	7%	2%	-7%	i	-0.8%	-9%	-1.3%
27	CCCCCCCCC[n+]1cccc2c3ccccc3ccc21	u	18%	3%	-3%	i	-11%	-274%	-0.4%
28	COc1cccc(NC(=O)c2oc3ccccc3c2NC(C)=O)c1	0.2%	5%	-4%	-5%	i	-0.3%	-5%	-1.2%
29	Cc1cc(/C=C(/C#N)C(=O)Nc2ccccc2)c(C)n1-c1cccnc1	0.0%	14%	-1%	-3%	i	-4.4%	-4%	-2.1%
30	CC(=O)Nc1ccc(S(=O)(=O)N2CCN(c3cc4c(cc3[N+](=O)[O-])n(C)c(=O)n4C)CC2)cc1	-1.5%	3%	3%	6%	i	-2.4%	-1%	-0.6%
31	COc1ccccc1NC(=O)Cc1csc(NC(=S)Nc2ccc(C)cc2)n1	-0.1%	5%	3%	1%	i	-2.1%	6%	-1.1%
32	CC1CCc2cccc3c2N1c1cc(C#N)c(C#N)cc1O3 (configuration not stated)	0.6%	-3%	2%	-6%	i	-7.6%	6%	-4.0%
33	N#Cc1ccc(-c2ccc(F)cc2)nc1Sc1ccc(F)cc1	u	-4%	1%	1%	i	-3.4%	-3%	-0.9%
34	COc1ccc(OCC(=O)Nc2cc(OC)cc(OC)c2)cc1	-0.2%	4%	4%	-12%	i	-2.4%	1%	-0.9%
35	Cc1cc(NC(=O)CSc2nc3sc(C)c(C)c3c(=O)n2C2CCCC2)no1	0.1%	-4%	-6%	-2%	i	-3.2%	1%	2.3%
36	COc1ccccc1-c1nnc(SCc2nc3ccccc3s2)n1C	-1.2%	1%	2%	-4%	i	-16%	-6%	-2.1%
37	CSc1nc(N)nc(SCC(=O)Nc2ccc(Cl)cc2)c1C#N	1.2%	-2%	1%	-5%	i	-1.3%	2%	0.6%
38	COc1ccc(C(C(=O)NC(C)(C)C)N(C(=O)CNC(=O)c2cccs2)c2ccc(C(C)C)cc2)cc1OC (configuration not stated)	-0.8%	3%	7%	1%	i	-2.0%	-4%	7.2%
39	CCc1nnc(NC(=O)CSc2nnc(COc3ccccc3)n2Cc2ccccc2)s1	-0.1%	-4%	-3%	11%	i	-4.5%	-11%	-4.3%
40	CCOc1cc(/C=N/n2cnnc2)ccc1OC(=O)c1cccc([N+](=O)[O-])c1	0.1%	7%	1%	-2%	i	-8.5%	5%	0.8%
41	CCOCCCNC(=O)CCS(=O)(=O)Cc1ccc(C)cc1	-0.2%	-4%	0%	6%	i	-6.7%	-5%	-0.7%
42	COc1ccc(NC(=O)COC(=O)c2ccc(OCc3c(C)noc3C)cc2)cc1OC	0.6%	5%	14%	4%	i	-2.1%	-2%	-2.2%
43	COc1ccc(CN(C(=O)c2cccs2)C(C(=O)NC2CCCCC2)c2ccc3ncccc3c2)cc1 (configuration not stated)	x	4%	0%	-14%	x	-4.3%	-4%	i
44	Cc1ccc(C(=O)COc2ccccc2C(=O)Nc2ccccc2)cc1	u	0%	i	-9%	i	0.7%	-3%	1.6%
45	Cc1ccccc1OCC(=O)NC(=S)Nc1ccc(S(=O)(=O)NC2CCCCC2)cc1	-0.1%	5%	4%	1%	i	-5.1%	9%	-1.1%
46	COc1ccc(N(C)C(=O)c2ccc3nc(-c4ccccc4)c(-c4ccccc4)nc3c2)cc1	0.1%	10%	4%	28%	i	-19%	-5%	0.0%
47	COCCCn1c(SCc2nnc(-c3ccccc3)o2)nc2sc3c(c2c1=O)CCC3	0.2%	7%	-3%	-4%	i	-3.0%	2%	0.4%
48	CCn1c(CC(=O)Nc2ccc(C)cc2)nnc1SCC(=O)Nc1nc(C)cs1	-0.2%	2%	-2%	9%	i	-2.1%	6%	-1.2%
49	Cc1ccc(CSC2=CS(=O)(=O)c3ccccc3N2)cc1	0.1%	-2%	4%	8%	i	-8.0%	0%	4.1%
50	COc1ccc(C(=O)NCc2ccc(-c3nc4ccccc4s3)cc2)cc1	0.7%	0%	0%	5%	i	-6.3%	3%	-1.8%

# Compound profiles (already shown):
# Entry for COc1ccc(CN(C(=O)c2cccs2)C(C(=O)NC2CCCCC2)c2ccc3ncccc3c2)cc1 (configuration not stated) → West Nile antiviral = x; P. falciparum M1AAP = 4%; SIAH1 antagonists = 0%; PhoP inhibition = -14%; Yfh1-off respiration = x; XIAP antagonists = -4.3%; P. falciparum M17LAP = -4%; CSM14.1 death rescue = i
# Entry for COc1ccc(Oc2nc(SC)nc3ccsc23)cc1 → West Nile antiviral = -0.1%; P. falciparum M1AAP = 2%; SIAH1 antagonists = -3%; PhoP inhibition = 8%; Yfh1-off respiration = i; XIAP antagonists = -1.4%; P. falciparum M17LAP = -3%; CSM14.1 death rescue = 0.3%

# (next part)
No.	structure	West Nile antiviral	P. falciparum M1AAP	SIAH1 antagonists	PhoP inhibition	Yfh1-off respiration	XIAP antagonists	P. falciparum M17LAP	CSM14.1 death rescue
51	O=C1CC(N2CCN(c3nc4ccccc4s3)CC2)C(=O)N1c1cccc(F)c1 (configuration not stated)	0.1%	-1%	1%	5%	i	-2.7%	-1%	-3.3%
52	O=C(Cc1ccc(F)cc1)N(c1ccc(F)cc1)C1C=CS(=O)(=O)C1 (configuration not stated)	-0.5%	7%	2%	-4%	i	-0.4%	4%	3.0%
53	N#Cc1nc(Cc2cccc3ccccc23)oc1N1CCN(c2ccccc2)CC1	-0.8%	4%	-3%	6%	i	-3.3%	2%	1.3%
54	CCNc1nc(NCC)nc(C(=O)Nc2ccccc2)n1	-0.3%	9%	-4%	-2%	i	-0.3%	16%	-0.6%
55	COc1ccc(C(=O)NCS(=O)(=O)c2ccc(C)cc2)cc1	-0.6%	5%	0%	-6%	i	-5.5%	3%	-1.0%
56	CC(C)(C)N(NC(=O)Nc1ccc(Cl)c(Cl)c1)C(=O)c1ccccc1	0.8%	2%	2%	0%	i	-3.0%	-5%	-0.3%
57	CCS(=O)(=O)N1CCC(C(=O)NCCc2ccccc2)CC1	0.2%	7%	0%	0%	i	0.9%	-5%	1.2%
58	CCN(CC)CCCN1C(=O)C(O)=C(C(=O)c2cc3cccc(OC)c3o2)C1c1ccncc1 (configuration not stated)	-0.7%	21%	1%	-20%	i	-4.8%	11%	-0.3%
59	CCOc1ccc(NC(=O)N(CCN2CCOCC2)Cc2ccc3c(c2)CCCN3CC)cc1	0.0%	1%	2%	-4%	i	-5.2%	13%	-1.1%
